Compound activity as filed in PubChem BioAssay.
TRPML1 inh: qHTS for Inhibitors of the Human Mucolipin Transient Receptor Potential 1 (TRPML1). 390,000 tested, 0.02% active. TRPML1-inducible cells, Ca2+ dye fluorescence, FDSS; hits give low values; inhibition of EC80 agonist-evoked calcium signal. activity change, negative = inhibition, % (no concentration beside the values). Mucolipin-1 (Homo sapiens), Q9GZU1. AID 624415, 2012; in the data active means activity change below about -50%; inconclusive means about -30% to -50%; inactive means above about -30%;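 note: stimulus is agonist 54-4 at its EC80 concentration; % is set by controls: 0 for no effect and ±100 for the full control effect; compound concentration not given in the record; the text of the record puts the active cut at -80%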
Target sequence (Q9GZU1 whole entry, looked up): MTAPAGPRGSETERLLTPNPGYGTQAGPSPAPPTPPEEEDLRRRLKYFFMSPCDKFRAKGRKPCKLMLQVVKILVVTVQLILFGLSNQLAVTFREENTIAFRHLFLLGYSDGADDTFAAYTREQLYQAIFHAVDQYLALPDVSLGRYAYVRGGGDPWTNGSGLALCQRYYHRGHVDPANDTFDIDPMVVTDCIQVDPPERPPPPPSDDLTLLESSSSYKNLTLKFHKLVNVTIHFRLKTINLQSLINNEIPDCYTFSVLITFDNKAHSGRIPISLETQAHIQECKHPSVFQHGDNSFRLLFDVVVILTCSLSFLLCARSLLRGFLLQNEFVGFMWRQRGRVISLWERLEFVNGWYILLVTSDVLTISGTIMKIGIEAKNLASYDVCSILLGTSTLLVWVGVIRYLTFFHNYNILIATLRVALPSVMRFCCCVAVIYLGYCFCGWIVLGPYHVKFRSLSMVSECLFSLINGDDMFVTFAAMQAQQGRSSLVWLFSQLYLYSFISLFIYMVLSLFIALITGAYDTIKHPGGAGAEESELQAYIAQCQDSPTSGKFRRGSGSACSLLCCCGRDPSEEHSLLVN
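TRPML1-DL cells, Tet-induced overnight (~16 h, 37 °C) at 1,500 cells/well, were loaded with Ca8 no-wash dye plus quencher for 45-90 min at room temperature. Compounds were pinned during FDSS kinetic reading; agonist 54-4 at EC80 (4 uM final) then added.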
Sfp PPTase inh: qHTS Assay for Inhibitors of Bacillus subtilis Sfp phosphopantetheinyl transferase (PPTase) | Biochemical Sfp PPTase activity, qHTS | Potency, µM, for the others: max response, negative = inhibition, actives largely listed as inhibitors | 310,000 tested, 3.5% active; active = well fitted inhibition curve with a large enough effect; inconclusive = small, poorly fitted or top-dose-only effect, or another doubt; inactive = no such curve, though single readings can be large or run the other way;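 note: the enzyme is Sfp with the accession as filed and its product quenches rhodamine fluorescence; potency is the fitted concentration of half-maximal effect; 0% = enzyme reaction without inhibitor and -100% = no enzyme wells; top concentration of the series not given in the record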
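Reaction rates are the 30-min fluorescence difference (ex 525, em 598 nm) in wells containing 15 nM Sfp, 5 uM rhodamine-CoA and 12.5 uM BHQ-2-YbbR at pH 7.6 with 10 mM MgCl2.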
Menin MLL FP FL: qHTS Assay for Inhibitors Targeting the Menin-MLL Interaction in MLL Related Leukemias: Competition With Fluorescein Labeled MLL-derived Peptide | 290,000 tested, under 10 active | Fluorescence polarization, fluorescein-MLL peptide displacement from menin | FP activity change, % at 61.4 µM; inconclusive = falling polarisation curve, or a change in total fluorescence; inactive = total fluorescence flat and polarisation flat or rising; no compound was filed as active; the % refers to the polarisation; negative = inhibition;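 note: % of control where 0% means no effect; inhibitors lower the polarisation; unlabelled MLL peptide was the positive control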
gsp antagonist: qHTS for Antagonists of gsp, the Etiologic Mutation Responsible for Fibrous Dysplasia/McCune-Albright Syndrome: qHTS; gsp-mutant cells, cAMP HTRF, 30 min; control for the full effect not named in the record; Potency, µM (titrated, usually from 76.9 µM), inactives show at the highest dose activity change, negative = inhibition, most hits filed as inhibitors; 340,000 tested, 0.4% active; active = falling curve of any shape with a large fitted effect; inconclusive = falling curve, mostly with a smaller effect; inactive = flat or rising curve; cell line not stated here;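 note: intracellular cAMP measured with PDE inhibitor Ro 20-1724 present during compound exposure; potency is the fitted concentration of half-maximal effect; % is set by controls: 0 for no effect and ±100 for the full control effect; nearly all actives have a fitted effect of over 65% in size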
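Cells, 2000/well, grown 16–24 h in DMEM 10% FBS with 0.5 mg/ml G418, then compounds plus […] (300 uM addition stock), 30 min at 37C. cAMP read by HTRF (cAMP-d2 and anti-cAMP antibody-K in lysis buffer) after 30 min RT.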
gsp ag: qHTS for Agonist of gsp, the Etiologic Mutation Responsible for Fibrous Dysplasia/McCune-Albright Syndrome: qHTS; gsp mutant cells, cAMP HTRF, 30 min; control for the full effect not named in the record; Potency, µM (series often up to 76.9 µM), for inactives: at the top dose activation (cAMP increase), hits mostly activators; 340,000 tested, 0.13% active; active = well fitted activation curve with a large enough effect; inconclusive = small, poorly fitted or top-dose-only effect, or another doubt; inactive = no such curve, though single readings can be large or run the other way; cell line not stated here;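 note: phosphodiesterase inhibitor Ro 20-1724 added with compounds to block cAMP breakdown; potency is the fitted concentration of half-maximal effect; nearly all actives have a fitted effect of over 60% in size; about a fifth of the inactives were tested at one dose only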
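Cells in DMEM/10% FBS with G418 were pretreated with compounds in DMSO plus […] (300 uM stock) for 30 min at 37C. cAMP was measured by HTRF (cAMP-d2 plus anti-cAMP antibody-K) after 30 min at room temperature.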
ClpP mod: qHTS Assay for Activators of ClpP; ATP-dependent Clp protease proteolytic subunit (Bacillus subtilis (strain 168)), P80244; purified B. subtilis ClpP, FRET peptide cleavage, 20 min; Potency, µM (titrated, usually from 57.5 µM), inactives show at the top dose activity change, negative = active; 340,000 tested, 1.9% active; AID 651965, 2013; active = well fitted falling curve with a large enough effect; inconclusive = small, poorly fitted or top-dose-only effect; inactive = no such curve, though single readings can be large or run the other way; note: potency is the fitted concentration of half-maximal effect; the source files actives as falling curves though it sought activators and does not explain the sign; nearly all actives have a fitted effect of over 65% in size; many hits overshoot -100%
Target sequence (P80244 whole entry, looked up): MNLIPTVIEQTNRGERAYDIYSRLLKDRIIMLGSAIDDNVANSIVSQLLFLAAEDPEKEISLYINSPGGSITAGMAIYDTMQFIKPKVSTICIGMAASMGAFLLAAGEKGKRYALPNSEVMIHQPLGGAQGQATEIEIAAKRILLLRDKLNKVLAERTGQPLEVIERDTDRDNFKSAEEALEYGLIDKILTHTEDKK
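Buffer: 100 mM Tris/HCl pH8, 100 mM KCl, 0.05% low protease BSA, 2.5% glycerol, 0.01% Tween-20. ClpP 10 microg/mL final; 20 min RT; delta FRET normalized to ADEP and DMSO controls.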
TRPV1 potentiator: HTS Assay for Compounds that Act as Potentiators of the Vanilloid Receptor 1; Transient receptor potential cation channel subfamily V member 1 (Homo sapiens), Q8NER1; TRPV1-expressing cells, Fluo-8 calcium influx, capsaicin EC20 potentiation; host cell line not named in the record; control for the full effect not named in the record; 320,000 tested, 0.02% active; AID 540277, 2011; potentiation, % at 8.33 µM; active means potentiation above 80%; inconclusive means 30% to 80%; inactive means below 30%; note: 0% is about no effect
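TRPV1-expressing cells were cultured overnight at 35.5C and loaded with Fluo-8 calcium dye for 40 to 90 min at room temperature. After a 10 s baseline, compound was added and calcium influx was read kinetically for 3 min (ex 480/em 520 nm).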
An asterisk follows results filed as active; ? = inconclusive; / = not tested or not shown; & = joins results of further samples; [ ] = dose if it differs, or a comment.

SMILES	TRPML1 inh	Sfp PPTase inh	Menin MLL FP FL	gsp antagonist	gsp ag	ClpP mod	TRPV1 potentiator
O=C(CSc1nnc(-c2ccccc2F)o1)NC1CCCCC1	-9	-6%	-0.9	1%	2%[15.4 µM]	/	0
CC(C)c1cc(Nc2cccc(O)c2)cc(C(C)C)c1O	/	22µM*	1.0	/	/	/	14
Clc1ccc(C2=Nn3c(nnc3-c3n[nH]c4c3CCC4)SC2)cc1Cl	9	-16%	-0.1	16%	23%	-0.3%	4
Cc1ccc(Cn2nc(C)c(C(=O)NCC(c3cccs3)N3CCOCC3)c2Cl)cc1 (configuration not stated)	-10	/	/	?	2%[15.4 µM]	-2.0%	-14
O=C(Cn1cnc2cc([N+](=O)[O-])ccc2c1=O)Nc1cccc(S(=O)(=O)N2CCCCC2)c1	28	/	/	-23%	21%	-3.8%	/
Cc1ccc(CN2CC(C(=O)N3CCN(c4ccccc4Cl)CC3)CC2=O)cc1 (configuration not stated)	21	/	/	-20%	-26%	-0.1%	-9
CC1=C(C(=O)N2CCOCC2)CC(CC(=O)NC2CCCC2)C(=O)N1Cc1ccc(C(C)(C)C)cc1 (configuration not stated)	-1	/	/	/	-15%	-1.9%	/
COCCOC(=O)c1[nH]c2c(c1C)C(=O)CC(c1ccc(F)cc1)C2 (configuration not stated)	20	7%	6.7	1%	-15%	-0.5%	/
CC(=O)C1CCC2C3CCC4CC(=O)CCC4(C)C3C(O)CC12C (configuration not stated)	21	/	/	-11%	-24%	-2.9%	/
Cc1ccc(S(=O)(=O)N2C[C@H]3[C@H]4C(=O)N(c5ccccc5)C(=O)[C@H]4C[C@H](OC(=O)NC4CCCC4)[C@@]3(O)C2)cc1	7	/	/	/	8%	0.1%	/
CCn1c(SCC(=O)NNC(=O)c2ccc(C)cc2)nnc1-c1ccncc1	13	/	/	12%	8%	-0.8%	/
O=S(=O)(NCCc1ccccc1)c1ccc(Br)s1	24	1%	/	-5%	-29%[15.4 µM]	-3.1%	-7
COc1ccc(C(=O)NCC2OCCc3ccccc32)cc1OC (configuration not stated)	21	7%	-1.6	13%	-21%	-2.8%	3
CNC(=O)Nc1ccccc1NC(=O)NC	-5	25%	4.0	16%	0%	1.3%	-1
O=C(c1ccccc1Cl)N1CCN(S(=O)(=O)N2CCCCC2)CC1	-9	11%	-6.6	-9%	11%[15.4 µM]	-0.4%	?
CC(C)Nc1nc(Oc2ccc(Cl)cc2)cc(C(F)(F)F)n1	-6	17%	4.4	-4%	?	?	-8
O=[N+]([O-])c1ccc(O)c(/C=N/n2cnnc2)c1	1	0%	3.6	5%	-2%[15.4 µM]	-1.9%	4
CCCCNC(=O)/C=C1\Sc2ccccc2NC1=O	0	18%	1.9	-1%	0%	-7.2%	6
CCCC(=O)OCC(=O)Nc1ccc(OC(F)F)cc1	5	4%	-3.2	6%	-21%	-3.0%	-1
COCCOc1ccc(C(F)(F)F)cc1NC(=O)COC(=O)c1c(C)noc1C	22	27%	1.2	2%	-15%	2.1%	-14
CN(CC(=O)Nc1cccc(F)c1)C(=O)CNS(=O)(=O)c1ccc(N(C)C)c([N+](=O)[O-])c1	17	/	/	4%	10%[15.4 µM]	1.3%	8
CC1=C(C(N)=O)C(c2ccccc2[N+](=O)[O-])n2ncnc2N1 (configuration not stated)	-6	40µM*	-1.3	8%	-2%	-3.8%	4
COc1cccc(-c2cc(C(F)(F)F)c(C#N)c(=O)[nH]2)c1	6	9%	2.3	/	0%[15.4 µM]	/	4
COc1ccccc1NC(=O)C1=C(C)Nc2nc(-c3cccs3)nn2C1c1cccnc1 (configuration not stated)	12	-3%	-0.1	-11%	?	1.2%	/
CCCCC(=O)N1C(C)CCC1C (configuration not stated)	0	/	/	/	?	1.1%	/
COCCn1c(SCC(=O)Nc2sc(C)c(C)c2C#N)nnc1-c1ccc(OC)cc1	35	3%	6.5	-4%	1%	-1.9%	9
COc1ccc(/C=N/N=C2/NC(=O)C(CC(=O)NC(C)C)S2)cc1 (configuration not stated)	16	5%	-2.8	-2%	8%[15.4 µM]	14µM*	7
CC12CCC(=O)N1C(C(=O)OCC(=O)Nc1cccc(S(=O)(=O)N3CCCCCC3)c1)CS2 (configuration not stated)	12	-21%	5.6	-20%	2%	-0.4%	3
CC(OC(=O)Cn1cnc2c1c(=O)n(C)c(=O)n2C)C(=O)N(C)c1ccccc1 (configuration not stated)	-6	/	/	8%	-9%[15.4 µM]	/	-1
COC(=O)c1sc(C(F)(F)F)c(-c2ccccc2)c1S(=O)(=O)NC(C)(C)C	13	2%	0.6	-5%	-70%[inhibitor]	-2.1%	-2
CCOc1cc(/C=C/C(=O)c2ccc3c(c2)OCCO3)ccc1OCC(=O)N(C)C	8	6%	6.1	-30%	1%[15.4 µM]	/	3
CN1C(=S)SC(/[N+]([O-])=C/c2ccc(Cl)cc2)C1(C)C (configuration not stated)	-27	4%	-0.3	3%	-2%[15.4 µM]	/	-18
COc1ccc(CNC(=O)COC(=O)c2cc(S(=O)(=O)N3CCOCC3)ccc2O)cc1OC	-9	/	/	-21%	-73%[inhibitor]	-21%	/
CC1C/C(=N/N=C2/NC(=O)CS2)CC(C)(C)C1 (configuration not stated)	-10	5%	2.7	7%	-16%	1.4%	-3
Cc1cccc(N2CCN(Cc3oc(CO)cc(=O)c3O)CC2)c1C	22	-21%	-1.1	7%	6%	0.4%	-3
COC(=O)c1[nH]c2ccccc2c1Sc1ccccc1	20	13%	-11	11%	?	-3.4%	-7
CN(C)/C=C1\NC(=S)N(c2ccccc2)C1=O	-12	50µM*	1.9	-12%	-4%	/	1
CCOC(=O)c1ccc(NC(=S)NNC(=O)COC)cc1	-6	-8%	-0.6	6%	-104%[inhibitor]	-0.8%	14
COc1cc([N+](=O)[O-])ccc1NC(=O)c1cccc(NC(=O)C(C)C)c1	4	10%	-2.5	?	-7%[15.4 µM]	/	4
CC(OC(=O)CNC(=O)c1sc2ccccc2c1Cl)C(=O)NC1(C#N)CCCCC1 (configuration not stated)	11	/	/	-10%	-3%	-1.9%	-5
CC[C@]12c3[nH]c4cc(-c5ccco5)ccc4c3CCN1C(=O)[C@@H](CC(=O)NCCCN(C)C)C[C@@H]2C(=O)N1CCN(C(=O)C2CC2)CC1	-21	/	/	-4%	/	4.4%	/
O=C(CCc1ccccc1)NCCSc1ccccc1	22	21%	-4.1	1%	-43%[inhibitor]	/	2
O=C(COc1ccc(S(=O)(=O)N2CCOCC2)cc1Cl)NCc1ccco1	7	1%	-2.1	-5%	-5%	/	-12
Cc1cc(/C=N/NC(=O)c2cccc([N+](=O)[O-])c2)c(C)n1-c1ccccc1	-6	-12%	0.7	6%	-29%[15.4 µM]	/	-20
CSc1ccccc1NC(=O)CN(C)CC(=O)NCC(=O)Nc1ccc(F)cc1	-1	/	/	0%	1%[15.4 µM]	-1.5%	4
COc1ccc(CN2CCCCCC2)c(C)c1C	1	-13%	0.2	-12%	25%	-0.3%	9
CCCCOc1ccc(S(=O)(=O)N2CCCCC2)cc1	-4	-5%	0.0	-12%	-30%[inhibitor]	-1.8%	-9
COc1ccc(S(=O)(=O)C(C#N)c2nc3ccccc3nc2N2CCC(C)CC2)cc1 (configuration not stated)	/	?	?	/	/	/	0
O=C(Cc1ccc(F)cc1)Nc1ccccc1N1CCCC1	13	4%	/	6%	-24%	0.6%	25
c1ccc(CSc2nnc(-c3ccco3)c(-c3ccco3)n2)cc1	17	35µM*	7.0	-3%	?	-0.9%	-6
(more compounds)
SMILES	TRPML1 inh	Sfp PPTase inh	Menin MLL FP FL	gsp antagonist	gsp ag	ClpP mod	TRPV1 potentiator
COc1cc(/C=N/NC(=O)c2ccncc2)ccc1OC(=O)c1ccc([N+](=O)[O-])cc1	-21	-7%	2.9	0%	15%	-0.6%	-10
COc1ccc(NS(=O)(=O)c2ccc(-c3ccccn3)s2)cc1	-1	/	/	-12%	6%	-0.3%	/
CCCN1CCC(=O)N(CCSc2ccc(OC)cc2)CC1	-1&1	-6%&8%	3.4&-0.3	6%	/	0.6%	?
COc1cccc(CC(NC(C)=O)C(=O)NC2CCN(c3c(Cc4ccccc4)c(C)nc4ncnn34)CC2)c1OC (configuration not stated)	-5	3%	-1.2	-32%	9%[15.4 µM]	0.3%	6
O=C(CCN1C(=O)/C(=C/c2cccc(Br)c2)SC1=S)Nc1cccnc1	10	1%	-4.7	-6%	-69%[inhibitor]	-0.6%	-11
Cc1cc(C)cc(NC(=O)Cn2c(=O)oc3cc(S(=O)(=O)N4CCC(C)CC4)ccc32)c1	33	33%[activator]	2.0	-16%	2%	3.6%	-17
CCOC(=O)C1(CC2CCCCO2)CCN(Cc2nc3ccccc3[nH]2)CC1 (configuration not stated)	-3	25%	3.2	2%	-11%	0.4%	-4
COc1cc(CNc2ccc(C(=O)O)cc2)cc(Br)c1OCC(=O)NC(C)(C)C	10	-2%	2.4	-11%	16%	-1.4%	?
COc1ccc(C2=NOC(C(=O)NCCCn3ccnc3)C2)cc1 (configuration not stated)	24	2%	5.0	4%	-6%	-3.5%	14
COc1ccc(C(=O)NCc2ccc(N3CCN(C)CC3)cc2)cc1	7	11%	-2.6	9%	0%[15.4 µM]	-0.6%	6
CCC(=O)N1CCN(c2c(Cl)cccc2[N+](=O)[O-])CC1	7	15%	-3.0	20%	-5%	1.6%	?
